# Bioassay records: PubChem BioAssay, National Center for Advancing Translational Sciences (NCATS)
# Menin-MLL FL inh: inhibitors of human menin-MLL interaction, wild-type MLL peptide; Fluorescence polarization, fluorescein-MLL peptide displacement from menin; FP activity change, % at 61.4 µM; 290,000 tested, under 10 active; AID 1766; inconclusive = falling polarisation curve, or a change in total fluorescence; inactive = total fluorescence flat and polarisation flat or rising; no compound was filed as active; the % refers to the polarisation; negative = inhibition;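 further: % of control where 0% means no effect; inhibitors lower the polarisation; unlabelled MLL peptide was the positive control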
# Starred values were filed as active, the others as inactive; ? = inconclusive; & = joins results of further samples; [ ] = another dose, or the depositor's remark.
SMILES,Menin-MLL FL inh
COc1ccccc1CCn1c(=O)c(-c2cc(F)cc(F)c2)nc2cncnc21,9.8
NC(Cc1ccc(Oc2ccc(O)cc2)cc1)C(=O)O (stereo not given),-1.5
C=C1/C(=C\C=C2/CCC[C@]3(C)[C@@H]([C@H](C)/C=C/[C@@H](O)C4CC4)CC[C@@H]23)C[C@@H](O)C[C@@H]1O,1.7
CC(C)(C)c1ccc(C(=O)N2CCC(=O)N([C@H](COCc3ccc(Cl)cc3)Cc3ccccc3)CC2)cc1,?
Cc1cc2c(cc1Cl)C(c1ccc3c(c1)OCO3)CC(=O)O2 (stereo not given),-3.4[94.6 µM]
C=C(NC(=O)C(=C)NC(=O)c1csc(C2=NC3c4csc(n4)C4NC(=O)c5csc(n5)C(C(C)(O)C(C)O)NC(=O)C5CSC(=N5)C(=CC)NC(=O)C(C(C)O)NC(=O)c5csc(n5)C3(CC2)NC(=O)C(C)NC(=O)C(=C)NC(=O)C(C)NC(=O)C(C(C)CC)NC2C=Cc3c(C(C)O)cc(nc3C2O)C(=O)OC4C)n1)C(N)=O (stereo not given),3.6
N[C@@H](C(=O)O)[C@H](CC(=O)O)c1ccc(Cl)cc1,?
CCNc1ncc2ncc(=O)n(CCc3ccccc3)c2n1,9.5
C=CC[C@@H]1C=C[C@@H](O/N=C(/C)CCC(=O)OC[C@@H]2O[C@H](C#Cc3ccccc3)C=C[C@@H]2Oc2ccc(C)cc2)[C@@H](CO)O1,3.0[11.7 µM]
COCCNc1nc(-c2ccc(N(C)C)cc2)nc2ccccc12,2.9
CC(=O)OCC(=O)[C@@]12OC(C)(C)O[C@@H]1C[C@H]1[C@H]3C[C@H](F)C4=CC(=O)C=C[C@@]4(C)[C@]3(F)[C@H](O)C[C@@]12C,-0.8[24.8 µM]
O=c1ccn([C@@H]2O[C@H](COP(=O)(O)OP(=O)(O)O)[C@@H](O)[C@H]2O)c(=O)[nH]1,-4.1
COc1cccc([C@@H]2Oc3ccc(OC)cc3[C@H](O)[C@H]2O)c1,2.8
CCc1cc2c(c(CC)n1)CCC(=O)N2Cc1ccc(-c2ccccc2-c2nn[nH]n2)cc1,1.1
Cc1cc(C)cc(N(C(=O)CCC(=O)Nc2ccccn2)C(C(=O)NC(C)C)c2ccc(O)cc2)c1 (stereo not given),0.0
O=C1CSC(=S)N1c1ccc(F)cc1,19
CN(C)c1ccc(-c2ccc3ncnc(NCc4ccccc4)c3c2)cc1,5.5
COc1ccc(-c2nc3cnc(N4CCOCC4)nc3n(Cc3cccs3)c2=O)cc1,?
C=C(COC)C1=CCC(C(=O)OC)(C(=O)OC)[C@@H](C[N+](=O)[O-])c2ccccc21,0.1&2.3
COc1cc2c(Cc3c4c5c(cc(OC)c(OC)c5c5c(OC)c(OC)ccc35)CCN4C)c3c4c(cc(OC)c(OC)c4c2cc1OC)CCN3C,?
COCC(=O)Nc1c(I)c(C(=O)NC[C@@H](O)CO)c(I)c(C(=O)N(C)C[C@@H](O)CO)c1I,-4.2[24.8 µM]
CCCCS(=O)(=O)N1CCc2nc(-c3ccccc3)c3c(c2C1)CO[C@@H](C)C3,1.7[11.7 µM]
COc1cc(C/C=C\c2ccccc2)c(OC)cc1O,-1.5
O=C(c1cccc(F)c1)N1CCC[C@@]2(CCN(Cc3ccccc3)C2)C1,-0.4
NCCCC[C@H](NC(=O)[C@@H](Cc1ccccc1)NC(=O)[C@H](Cc1c[nH]c2ccccc12)NC(=O)[C@@H](CCCCN)NC(=O)[C@@H](Cc1c[nH]c2ccccc12)NC(=O)[C@@H](N)Cc1cnc[nH]1)C(N)=O,-3.4
COc1ccccc1CN1CC[C@@]2(CCCN(C(C)=O)C2)C1,-1.1
Cc1ccc2[nH]c3c(c2c1)CN(C(=O)CN1CCN(c2ccccc2)CC1)CC3,-13
FC(F)(F)c1ccccc1-c1cncnc1-n1ccnc1,-2.9
N[C@H](CSC(c1ccccc1)(c1ccccc1)c1ccccc1)C(=O)O,0.3
Cc1nn(-c2ccccc2)c(C)c1/C=N/N1CCN(Cc2ccccc2)CC1,-1.5
c1cnc(N2CCN(c3ncnc4c3oc3ccccc34)CC2)nc1,1.2
CCC(=O)O[C@H]1C(O[C@@H]2C(C)[C@H](O[C@H]3C[C@@](C)(OC)C(O)C(C)O3)C(C)C(=O)OC(CC)[C@@](C)(O)C(O)[C@H](C)C(=O)C(C)C[C@]2(C)O)OC(C)CC1N(C)C (stereo not given in full),?
Cc1noc(C)c1C(=O)N1CCC2(CCN(Cc3ccc(C#N)cc3)CC2)CC1,0.0
Cc1nc2sccn2c(=O)c1CCN1CCC(=C(c2ccccc2)c2ccc(F)cc2)CC1,1.9&0.4
COc1cccc(OCCOCCNCCO)c1,0.9
CC(C)c1ccc(N2CCN(C(=O)c3ccccc3NC(=O)/C=C(\C(=O)O)c3ccccc3)CC2)cc1,0.7
COc1cccc2c1C(=O)c1c(O)c3c(c(O)c1C2=O)C[C@](O)(C(C)=O)C[C@H]3O[C@@H]1C[C@H](N)[C@H](O)[C@H](C)O1,?
COC(=O)[C@H]1C[C@@H]1[C@H](NS(=O)(=O)c1ccc(-c2ccccc2)cc1)c1ccccc1,-2.0
COc1ccc(OC)c(NC(=O)CC(NCCC2=CCCCC2)C(=O)O)c1 (stereo not given),0.5
COC(=O)c1ccc(CSc2ccc3nnc(-c4cccnc4)n3n2)o1,-0.9
N#Cc1cccc(CS(=O)(=O)c2nc3ccccc3s2)c1,-2.7
Cc1cc(/C=C(\C#N)c2nnc(N3CCOCC3)n2-c2ccccc2)c(C)n1-c1ccccc1,12
Cc1nn(C)cc1CNC(=O)C1C2CCC(O2)C1C(=O)O (stereo not given),-0.8
Cc1noc(C)c1C(=O)N1CCC2(CCN(Cc3ccccc3)CC2)CC1,-3.5
O=C(O)c1ccc(OCCCOc2ccc(C(=O)O)cc2)cc1,-1.1&-0.5
CCN1C(=O)[C@H]2[C@H]3[C@H](O)[C@H](O)C/C(=N/O[C@@H]4O[C@@H](COC(C)=O)[C@@H](OC(C)=O)[C@@H](OC(C)=O)[C@H]4OC(C)=O)[C@@H]3CC[C@@H]2C1=O,-7.0[11.7 µM]
COc1ccc(C2C3=C(Nc4ncnn42)c2ccccc2CC3)cc1OC (stereo not given),-1.9
Cc1cc(N2CCN(C3CCCC3)CC2)n2ncc(-c3ccccc3)c2n1,-2.6
COc1cc2oc(=O)cc(-c3ccc(-c4cccc(N)c4)cc3)c2c(OC)c1OC,3.1
CCOc1ccccc1NC(=O)c1c(NC(=O)CNCc2ccco2)sc2c1CCC2,5.4
O=C(c1cnccn1)N1CCC[C@@]2(CCN(Cc3cc(C(F)(F)F)cc(C(F)(F)F)c3)C2)C1,-0.1
CC1(C)S[C@@H]2[C@H](NC(=O)COc3ccccc3)C(=O)N2[C@H]1C(=O)O (tested in a mixture with another compound),2.2[24.8 µM]
COCCn1c(=O)c(-c2ccc(OC)cc2)nc2cnc(OCc3ccccc3)nc21,-3.4
CN1C(=O)/C(=C\c2ccccc2)Sc2ccc(C(=O)N3CCN(c4ccccn4)CC3)cc21,5.5
CN(C)c1ccc(-c2cc(NCc3ccccc3)ncn2)cc1,1.3
Cn1c(=O)c(-c2cccc(C#N)c2)nc2cnc(Oc3ccccc3)nc21,-1.1
O=c1cc(-c2ccc(O)cc2)oc2cccc(O)c12,?
O=C1OC2(CCCCC2)CC2=C1C1O[C@](CCCCN3C(=O)c4ccccc4C3=O)(Cc3ccccc31)O2,4.0[11.7 µM]
CC(C)=NOC[C@@H](O)[C@@H]1O[C@@H]2OC(C)(C)O[C@@H]2[C@H]1O,0.1[11.7 µM]
COc1ccc(Nc2nc(-c3sc(NC(C)=O)nc3C)cs2)cc1,9.0

# 6 neighbouring entries already listed, quoted:
SMILES,Menin-MLL FL inh
CN1C(=O)/C(=C\c2ccccc2)Sc2ccc(C(=O)N3CCN(c4ccccn4)CC3)cc21,5.5
CN(C)c1ccc(-c2cc(NCc3ccccc3)ncn2)cc1,1.3
Cn1c(=O)c(-c2cccc(C#N)c2)nc2cnc(Oc3ccccc3)nc21,-1.1
O=c1cc(-c2ccc(O)cc2)oc2cccc(O)c12,?
O=C1OC2(CCCCC2)CC2=C1C1O[C@](CCCCN3C(=O)c4ccccc4C3=O)(Cc3ccccc31)O2,4.0[11.7 µM]
CC(C)=NOC[C@@H](O)[C@@H]1O[C@@H]2OC(C)(C)O[C@@H]2[C@H]1O,0.1[11.7 µM]

# Next part.
SMILES,Menin-MLL FL inh
Cn1c(SCC(=O)NNC(=S)Nc2ccccc2)nnc1-c1ccncc1,-2.0
CCC1=C2CC[C@H]3C(=O)N(c4ccccc4)C(=O)[C@H]3[C@H]2[C@@]2(C)C(=O)N(Cc3ccccc3)C(=O)N2C1=O,3.5
CC12CCC3C(CCC4CC(O)CCC43C)C1CC=C2c1ccccc1 (stereo not given),7.5
O=C1NC(=O)C(Cc2ccc(OCCN3COc4ccccc4C3=O)cc2)S1 (stereo not given),-5.5
N[C@@]1(C(=O)O)CO[C@H]2[C@H](C(=O)O)[C@H]21,-1.2
CC1(OC(=O)c2cnc3ccccc3n2)C(=O)C=C2C=C3CCCN3C=C2C1=O (stereo not given),-2.2[11.7 µM]
O=C(CCNS(=O)(=O)c1cccc2nsnc12)N1CCN(c2ccccn2)CC1,0.1
COc1ccc(C(=O)N(C)Cc2ccccc2)cc1Br,-0.3
NC1(C(=O)O)C[C@@H](C(=O)O)[C@H](C(=O)O)C1,?
COCCOC(=O)C1=C(C)NC(C)=C(C(=O)OC(C)C)[C@@H]1c1cccc([N+](=O)[O-])c1,?
CCCC/C=C/C(NC(=O)Oc1cccc(C(F)(F)F)c1)c1ccccc1 (stereo not given),0.6
COc1ccc(/C=C/C(=O)c2ccc(C)s2)cc1,-24
O=c1c(-c2ccccc2)nc2cncnc2n1Cc1ccc(F)cc1,-0.3
CC(=O)N1CCC2(CC1)CCN(c1ccncc1)CC2,0.7
COC(=O)N1CCC2(CC1)CN(C(=O)Nc1cccc(F)c1)C2,-3.8

# Molecules listed so far that contain a CF3 group, in the order listed:
SMILES,Menin-MLL FL inh
FC(F)(F)c1ccccc1-c1cncnc1-n1ccnc1,-2.9
O=C(c1cnccn1)N1CCC[C@@]2(CCN(Cc3cc(C(F)(F)F)cc(C(F)(F)F)c3)C2)C1,-0.1
CCCC/C=C/C(NC(=O)Oc1cccc(C(F)(F)F)c1)c1ccccc1 (stereo not given),0.6

# Later entries:
SMILES,Menin-MLL FL inh
O=C(NC1CCCCC1)NC1CC2CCC(C1)N2C(=O)NC1CCCCC1 (stereo not given),0.0
Cc1nc(NC(=O)COc2ccc(Cl)cc2)sc1C(=O)N(C)C,-2.8
COc1ccc2[nH]cc(CCNc3ccnc(-c4ccccc4C(F)(F)F)n3)c2c1,2.4
CCCCNc1nc(C)nc2c1nc(-c1ccccc1)n2CCCN(CC)CC,0.2
COc1ccccc1/C=C1\SC(=S)N(CC(=O)Nc2nnc(C)s2)C1=O,1.8
Cc1cc(=O)c2c(O)cc(O)c(C)c2o1,0.1
CN(C)CCCn1cc(C2=C(c3c[nH]c4ccccc34)C(=O)NC2=O)c2ccccc21,?
CC(C)(C)c1ccc(-c2nc(O)c(CC(=O)O)s2)cc1,13
Cc1ccc(C)c(C(C)NC(=O)C2C3CCC(O3)C2C(=O)O)c1 (stereo not given),-0.4
N#Cc1ccc(CN2CCC3(CC2)CCN(C(=O)c2cccc(F)c2)CC3)cc1,0.3
COc1ccc(C2=NN(C(=O)c3ccccc3)C(c3ccc(OC)c(OC)c3)C2)c(OC(C)=O)c1 (stereo not given),-3.6
Cc1ccc(S(=O)(=O)N2CCN(c3nc(C)nc4sc(C)c(C)c34)CC2)cc1,-3.0
CCCCc1c(O)nc(SCCC(=O)O)[nH]c1=O,-2.1
CC(C)CO/N=C1/C[C@@H](O)[C@@H](O)[C@@H]2[C@H]3C(=O)N(c4ccc(F)cc4F)C(=O)[C@@H]3CC[C@H]12,-0.1[11.7 µM]
C=CCOC(=O)NC(c1ccc(F)c(F)c1)C(C(=O)CCl)C(=O)OC (stereo not given),-1.8

# A draw from above in order of count of non-hydrogen atoms, rising:
SMILES,Menin-MLL FL inh
CC(C)(C)c1ccc(-c2nc(O)c(CC(=O)O)s2)cc1,13
Cc1nc(NC(=O)COc2ccc(Cl)cc2)sc1C(=O)N(C)C,-2.8
N#Cc1ccc(CN2CCC3(CC2)CCN(C(=O)c2cccc(F)c2)CC3)cc1,0.3

# (continued)
SMILES,Menin-MLL FL inh
CCC1OC(=O)C(C)[C@@H](O[C@H]2C[C@@](C)(OC)C(O)C(C)O2)C(C)[C@@H](O[C@@H]2OC(C)CC(N(C)C)C2O)[C@@](C)(O)CC(C)CN(C)C(C)C(O)[C@]1(C)O (stereo not given in full),-3.1
O=C1C2Cc3c([nH]c4ccccc34)C(c3ccccc3)N2C(=O)C2Cc3c([nH]c4ccccc34)C(c3ccccc3)N12 (stereo not given),2.2[11.7 µM]
COc1ccc(/C(O)=C2/C(=O)C(=O)N(CCCN(C)C)C2c2cccnc2)cc1 (stereo not given),0.0
CS(=O)(=O)N1CCC2(CCN(C(c3ccccc3)c3ccccc3)CC2)CC1,4.9
COC(=O)c1ccc(CSc2ccc3nnc(-c4ccc(OC)cc4)n3n2)o1,1.0
CCn1c(SCC(=O)N2CCN(c3ccccc3)CC2)nnc1-c1ccncc1,1.8
O=C(CN1C(=O)c2ccccc2C1=O)Oc1ccc(F)cc1,2.8
COC(=O)C/C=C/[C@@H](C)[C@@H](/C=N/O[C@H](C)c1cn([C@@H]2COC[C@H]2O)nn1)NS(=O)(=O)c1ccc(C)cc1,-2.5
CNC(=O)C(N)CSC(C)C1=C(C)c2cc3[n-]c(cc4nc(cc5[n-]c(cc1n2)c(C)c5CCC(=O)O)C(CCC(=O)O)=C4C)c(C)c3C(C)SCC(N)C(=O)NC.[Fe+2] (stereo not given),1.6
COc1ccc(Nc2ncc3nc(-c4cccs4)c(=O)n(Cc4cccc(OC)c4)c3n2)cc1,?
Cn1c(=O)c2c3c(sc2n2c(SCc4ccccc4)nnc12)CCCC3,3.0
COc1ccccc1-c1ccc2ncnc(N(C)Cc3ccco3)c2c1,-1.2
Cc1cc(C(=O)COC(=O)c2ccc(Br)o2)c(C)n1Cc1ccco1,5.3

# Not all compounds are listed. The share of hits here may be higher or lower than overall.
